Screens (PubChem)
Vif A3G – HIV-1 Vif–A3G interaction blockers – biochemical, TR-FRET, GST-Vif 1-94, biotin-A3G peptide, dose response retest, primary screen (AID 1117319); TR-FRET GST-Vif / biotin-A3G peptide binding; higher % means a stronger effect; test concentration not given here; strong numbers were not always called active; one-dose inhibition, %; IC50 in µM for titrated hits; 260,000 tested, 0.57% active;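 active = above the screen mean plus three standard deviations and confirmed in dose response; inconclusive = results disagree or hit not tested in dose response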;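 also: Vif residues 1-94 fused to GST binding biotinylated APOBEC3G peptide 110-148; 0% = full assay without inhibitor and 100% = GST in place of GST-Vif; retest series ran down from 100 µM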
RanGTP-Impb inh – disruptors of Ran-importin-beta complex formation – biochemical, FRET, CFP-Ran, YFP-importin-beta, homogeneous, primary screen | 300,000 tested, 1.1% active | inhibition, % (no concentration beside the values) | cell-free CFP-Ran/YFP-importin-beta FRET ratio;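 active = most replicates above 15%; inconclusive = exactly half above 15%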;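 also: 0% = DMSO wells and 100% = Ran loaded with GDP instead of GTP; wells of about 40 µL received 100 nL stock; the first replicate is given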
LANA-H2B inh – blocks KSHV LANA binding to histone H2A/H2B. cell-free LANA-H2A/H2B peptide, fluorescence polarization. inhibition, % (no concentration beside the values). 320,000 tested, 0.6% active. Q9QR71; in the data active = inhibition mostly above about 10%, no sharp cut-off; inactive = mostly below about 6.7%;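 also: stock transfer was 7.5 nL into about 10 µL; 0% = median of vehicle wells and 100% = median of positive control wells; one replicate is shown; the record names a cut of 25% in any replicate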
Target sequence (Q9QR71 whole entry, looked up): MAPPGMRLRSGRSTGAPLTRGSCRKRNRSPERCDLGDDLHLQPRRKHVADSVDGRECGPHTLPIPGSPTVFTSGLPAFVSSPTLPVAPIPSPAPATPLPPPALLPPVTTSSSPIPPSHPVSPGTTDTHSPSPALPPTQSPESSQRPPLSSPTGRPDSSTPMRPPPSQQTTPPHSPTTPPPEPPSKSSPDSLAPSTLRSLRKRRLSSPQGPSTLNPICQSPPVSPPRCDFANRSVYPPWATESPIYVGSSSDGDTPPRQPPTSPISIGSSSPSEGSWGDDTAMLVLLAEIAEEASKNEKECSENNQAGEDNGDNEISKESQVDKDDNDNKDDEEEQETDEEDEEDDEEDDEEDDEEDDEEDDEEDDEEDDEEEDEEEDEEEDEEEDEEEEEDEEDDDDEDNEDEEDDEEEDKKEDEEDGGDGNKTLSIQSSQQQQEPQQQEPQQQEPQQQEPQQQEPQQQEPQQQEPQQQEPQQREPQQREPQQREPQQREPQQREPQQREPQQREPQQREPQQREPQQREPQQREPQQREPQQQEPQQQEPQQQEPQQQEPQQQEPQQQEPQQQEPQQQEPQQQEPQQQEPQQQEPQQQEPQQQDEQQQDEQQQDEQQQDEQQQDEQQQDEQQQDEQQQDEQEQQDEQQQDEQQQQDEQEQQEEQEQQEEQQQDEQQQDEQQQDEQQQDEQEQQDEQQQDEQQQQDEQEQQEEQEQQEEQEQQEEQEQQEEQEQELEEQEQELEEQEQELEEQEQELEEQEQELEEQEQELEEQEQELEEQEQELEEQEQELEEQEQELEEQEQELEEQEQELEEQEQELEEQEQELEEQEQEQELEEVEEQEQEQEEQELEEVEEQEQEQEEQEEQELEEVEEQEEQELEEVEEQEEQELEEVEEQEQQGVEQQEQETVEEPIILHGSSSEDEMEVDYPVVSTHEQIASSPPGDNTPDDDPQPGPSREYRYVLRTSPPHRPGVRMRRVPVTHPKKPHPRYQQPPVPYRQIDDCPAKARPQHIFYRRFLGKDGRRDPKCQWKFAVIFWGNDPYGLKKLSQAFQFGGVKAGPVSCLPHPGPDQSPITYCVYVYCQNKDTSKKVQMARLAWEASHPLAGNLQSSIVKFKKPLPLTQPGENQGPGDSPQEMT
AF4-AF9 inh – MLL-AF4/AF9 protein interaction inhibition. P42568. AlphaScreen, biotin-AF4 peptide binding to FLAG-AF9. inhibition, % at 10 µM. 350,000 tested, 0.47% active. AID 651704;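 active = every replicate reaching a set inhibition limit, whatever the replicate mean, cut at about 25% in these data; inconclusive = mean inhibition reaches that limit but some replicates miss it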;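 also: 0% = plate neutral control median and 100% = total signal loss; the record names both 10 and 1 µM as test concentration; the first replicate is given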
Beta cell apopt – blocks beta cell apoptosis; 300,000 tested, 0.8% active; protection from apoptosis, % (no concentration beside the values); INS-1E cytokine-induced death, ATP luminescence, 48 h; percent of positive-control rescue, neutral wells zero;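 active = all replicates at 75% or more, or half of them and the mean; inconclusive = half reach 75% but not the mean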;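 also: 0% = cytokine-treated negative control wells and 100% = positive control rescue; higher means more ATP so stronger rescue from cytokine killing; wells of about 40 µL received 100 nL stock; the first replicate is given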
T cruzi inh – T. cruzi replication inhibition | 300,000 tested, 1.4% active | inhibition, % (no concentration beside the values) | AID 1885 | T. cruzi beta-gal in NIH3T3, luminescence, 90 h;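 active = mean inhibition across valid replicates above about 55%, limit read from the data; inconclusive = mean below that limit but half or more replicates reach it; inactive = mean below it, under half of replicates reach it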;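 also: signal also drops with host cell toxicity which is not excluded here; 0% = plate median of DMSO wells and 100% = zero luminescence signal; higher percent means less beta-gal luminescence so fewer parasites; stock transfer was 50 nL into about 50 µL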
A1 inh – inhibitors of the anti-apoptotic protein A1, read as caspase activation; 330,000 tested, 0.066% active; MEF A1-2A-BIM cells, Caspase-Glo 3/7 luminescence, 3 h; percent of clofoctol response, vehicle zero; caspase activation, % (no concentration beside the values);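 active = over half of replicate activation scores above 10%, or exactly half above 10 with the replicate mean above 10; inconclusive = replicate mean below 10 yet half the replicates above 10; inactive = over half of replicates below 10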;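 also: wells of about 30 µL received 50 nL stock; many hits fall short of the cut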
Calb FLC – affects C. albicans growth with fluconazole. C. albicans CaCi-2 (fluconazole-resistant clinical isolate) + fluconazole, Alamar Blue growth, 48 h. growth inhibition, % (test concentration not listed). 300,000 tested, 0.57% active. AID 1979;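 active = most replicates above 75%; inconclusive = exactly half above 75%; inactive = most below 75%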;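 also: all wells also contain fluconazole at 8 µg/ml as a sub-toxic cotreatment; 0% = median of DMSO wells and 100% = median of geldanamycin control wells; wells of about 8 µL received 7.5 nL stock; the first replicate is given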
Numbers without * were called inactive; ? = inconclusive; · = no result given; & = joins results of further samples.

SMILES | Vif A3G | RanGTP-Impb inh | LANA-H2B inh | AF4-AF9 inh | Beta cell apopt | T cruzi inh | A1 inh | Calb FLC
CCCOC(=O)CCCN1C(=O)/C(=C2\SC(=S)N(CCCC(=O)OCCC)C2=O)SC1=S | -7.4% | -0.3 | -2.9 | 0.5 | 12.2 | 3.3 | 1.5 | 6.9
C=CCNCCCCOc1ccc(Br)cc1C | -7.4% | 8.1 | -0.2 | · | -6.4 | 52.0 | 1.8 | -4.3
Cc1cc(N/N=C/c2ccccc2Cl)nc(NCc2ccccc2)n1 | · | -1.8 | 5.6 | · | 35.1 | 31.3 | -0.9 | 1.9
CC(C)(C)OC(=O)N/N=C\c1ccc(OC(=O)c2ccco2)cc1 | -1.2% | -1.3 | -4.5 | -1.2 | · | -13.8 | 0.9 | 5.7
CC(=O)Nc1ccc(-c2nc3ccccc3c(=O)o2)cc1 | 7.2% | 2.7 | -1.7 | -0.4 | -4.6 | -19.1 | -0.3 | -3.0
COc1ccc(OCC(=O)NC2CCCN(Cc3ccc(Cl)cc3)C2)cc1 (stereo not drawn) | · | 4.9 | 5.2 | 1.6 | -2.4 | 36.7 | 1.0 | 11.3
CCn1c(Cc2ccccc2)nnc1SCC(=O)Nc1ccc(OC)cc1 | -8.2% | -2.9 | 2.5 | · | 5.3 | -4.0 | -0.1 | 2.8
Cc1ccc(C(=O)OCC(=O)NCc2cccs2)cc1S(=O)(=O)N1CCOCC1 | -5.5% | -2.5 | 0.5 | 0.0 | 0.9 | -14.8 | -0.1 | -3.6
Cc1ccc(C(=O)NC(C)c2ccccc2)o1 (stereo not drawn) | -5.0% | -3.7 | -0.5 | · | -4.4 | -4.5 | 0.3 | -5.4
CN(c1ccccc1)S(=O)(=O)c1cccc(NC(=O)c2cncc(Br)c2)c1 | 15.8% | -0.7 | -5.2 | -0.5 | 1.0 | 6.7 | -0.2 | 11.2
O=C(COc1cccc(NC(=O)c2cccc([N+](=O)[O-])c2)c1)c1ccc(Br)cc1 | 4.0% | -2.7 | 3.6 | · | 4.3 | 9.0 | -0.3 | -0.2
Cc1nnc(SCC(=O)NCc2ccccc2Cl)[nH]c1=O | 5.6% | · | -5.5 | 34.0* | -0.6 | -4.9 | 0.6 | ·
O=C1c2ccccc2C(=O)N1CC#CCN1CCN(C2CCCCC2)CC1 | 7.1% | -1.1 | 1.3 | · | -0.9 | 4.7 | -0.8 | -8.8
CCCCn1nnnc1NCc1cccnc1 | 23.7% | 7.5 | -1.2 | · | -4.0 | -10.5 | -0.3 | 0.7
C[C@@H]1O[C@@H](Oc2c(-c3ccc(O)c(O)c3)oc3cc(O)cc(O)c3c2=O)[C@H](O)[C@H](O)[C@H]1O | · | · | 0.9 | 2.7&-5.1 | -4.3 | · | -0.2 | ·
COc1ccc(N2C=C3C(=O)C(C)(OC(=O)CCc4ccccc4)C(=O)C=C3C=C2c2ccc(C#N)cc2)cc1 (stereo not drawn) | 11.3% | -4.6 | 2.1 | 0.0 | -4.6 | 1.6 | 0.2 | 16.8
CCn1cc(CN2CCC(C(=O)Nc3ccc(Oc4cccnc4)cc3)CC2)c(C)n1 | 0.0% | 1.1 | -4.2 | 3.7 | · | 2.0 | 0.7 | -2.3
COc1cc(OC)cc(C(=O)N(Cc2nc(-c3cccc(C)c3)no2)C(C)C)c1 | 2.5% | -0.8 | · | · | · | 24.2 | · | -2.5
Cc1nc(C(=O)N2CCOCC2)sc1C1(C)CC(c2ccccc2)=NO1 (stereo not drawn) | 10.2% | -3.5 | -3.2 | 4.3 | -11.6 | -11.2 | -0.5 | 6.9
COc1ccccc1C(=O)N1CCCC(c2nc(-c3cc(OC)c(OC)c(OC)c3)no2)C1 (stereo not drawn) | ? | 2.5 | -1.2 | · | 2.8 | 4.9 | 0.3 | 17.2
O=C(NC(=S)Nc1cccc(Cl)c1Cl)C1CC1 | · | -0.2 | 2.0 | -1.4 | -4.5 | -16.8 | -0.2 | 1.8
CC(=O)Nc1ccc(NS(=O)(=O)c2c(Cl)cccc2Cl)cc1 | -3.5% | -2.7 | 1.2 | 3.3 | -0.1 | -0.1 | 1.2 | 2.8
CN(C)CCCN(C(=O)COc1ccccc1)c1nc2cc3c(cc2s1)OCO3 | · | 2.8 | -1.4 | 7.8 | -6.8 | 38.6 | 0.9 | -0.9
CN(C)CCCNc1c2c(nc3cc(-c4cccc(F)c4)nn13)CCC2 | · | 26.9* | -5.2 | 2.9 | -12.6 | 68.3* | 0.8 | -11.4
COc1cc(CNn2c(C)n[nH]c2=S)cc(Br)c1OCc1ccc(F)cc1 | -1.4% | -1.0 | 4.1 | -2.1 | · | 4.4 | 0.3 | 26.7
CC[C@@H](C)[C@@H](C(=O)N1CCNCC1)n1cc(CCC(=O)O)nn1 | 20.4% | 0.3 | -3.0 | -2.4 | 0.1 | -7.0 | -0.8 | -10.0
COc1ccc(N/C(=C2\CCCC2=O)C2CCCCC2)cc1 | · | 3.4 | -0.4 | 2.1 | · | -2.9 | 2.0 | -2.8
COc1ccc(OC)c(-c2oc3ccccc3c(=O)c2O)c1 | -4.2% | 1.4 | 3.4* | 6.6 | -5.0 | 1.7 | 0.1 | -4.8
COc1ccc(NC(=O)COC(=O)C(NC(=O)c2ccc(C)cc2)C(C)C)cn1 (stereo not drawn) | · | · | -3.7 | -7.7 | -13.3 | · | -0.2 | ·
Cc1nc(C)c(C(=O)C2=C(O)C(=O)N(CCN3CCOCC3)C2c2cccnc2)s1 (stereo not drawn) | 0.7% | 2.4 | -1.2 | · | -0.5 | -13.4 | 0.8 | 7.1
Cc1cc(C)n(-c2cc(=O)n(C)c(=O)n2C)n1 | -0.6% | 1.6 | 1.9 | · | -5.9 | -15.3 | 0.2 | -25.0
Cc1cccc(N2N=C(C(=O)N3Cc4ccccc4CC3C(N)=O)CCC2=O)c1 (stereo not drawn) | · | · | 2.5 | -6.0 | -3.6 | · | 1.5 | ·
C[C@H](CO)N1C[C@H](C)[C@@H](CN(C)Cc2ccc(Cl)c(Cl)c2)Oc2c(NS(=O)(=O)c3cn(C)cn3)cccc2C1=O | -4.3% | · | 2.5 | 2.7&-6.3 | -2.7 | · | -0.1 | ·
Cc1cccc2cc(C3CC(c4ccco4)=NN3C(=O)CCC(=O)O)c(Cl)nc12 (stereo not drawn) | 17.0% | 0.2 | 4.8 | -8.2 | 1.0 | -2.6 | 0.6 | 5.9
COc1cc(CN(C)CCc2ccccn2)cc(OC)c1OC | -0.4% | -0.1 | 3.6 | · | -3.4 | 13.7 | -0.2 | 1.1
O=[N+]([O-])c1ccc(N2CCNCC2)c(S(=O)(=O)N2CCOCC2)c1 | -4.0% | 2.1 | 1.8 | -1.4 | · | 5.9 | 0.7 | 13.2
Brc1ccccc1-c1nnc(COc2cccc3cccnc23)o1 | ? | 1.3 | -0.6 | · | 3.4 | -8.2 | -0.7 | -10.0
CC(=O)O[C@H](CC(=O)O)C[N+](C)(C)C | · | 2.2 | 4.4 | -14.6 | -1.2 | -11.9 | 1.2 | -11.5
CCC(C)(C)n1nnnc1C(c1ccc2ncccc2c1)N1CCN2CCCC2C1 (stereo not drawn) | -4.8% | -3.2 | 0.7 | 6.8 | -5.7 | 2.3 | 0.9 | 16.9
Cc1cc(OCc2cc(C(=O)N(C)Cc3ccccn3)no2)cc(C)c1Cl | -1.8% | 6.1 | 0.8 | -1.1 | -1.3 | 16.5 | -2.7 | -4.3
CC(C)(CNC(=O)Cc1ccc(NS(=O)(=O)c2cccc(C(F)(F)F)c2)cc1)N1CCOCC1 | -2.0% | ? | 4.3 | -2.6 | · | 1.0 | 0.0 | 2.5
COCCN(C(=O)CCC(=O)Nc1cc(C)on1)C(C(=O)NC1CCCC1)c1ccccc1F (stereo not drawn) | · | -1.7 | -0.4 | -0.8 | 0.8 | -3.9 | -0.6 | -18.4
O=C(NCc1ccccc1)C1=C[C@@H](c2ccc(C(F)(F)F)cc2)C[C@@H](OCc2ccc(CO)cc2)O1 | ? | 2.9 | -1.7 | -5.2 | 3.6 | 63.0* | -0.4 | 9.0
O=C1/C(=C/c2ccc(N3CCCC3)cc2)NC(=S)N1C1CC1 | -2.4% | -38.1 | -14.0 | · | 0.9 | 8.6 | 0.0 | -4.0
S=C(NCCc1ccccn1)NC1CCCCC1 | · | -2.2 | 3.2 | · | -8.9 | -10.3 | -0.4 | 0.4
COc1ccccc1NC(=O)CSc1nnc(C2CCCCC2)n1-c1ccccc1 | 13.6% | 0.5 | -2.0 | -0.2 | -5.8 | 44.2 | -0.1 | -3.4
CC(C)C(C)NC(=O)COc1ccc([N+](=O)[O-])cc1Cl (stereo not drawn) | · | 0.2 | -4.5 | 0.1 | -7.7 | -3.6 | 0.2 | -3.3
O=C(N1CCCCC1)N1CCN(c2ccc(Cl)cc2)CC1 | 6.3% | 0.9 | 5.7 | · | · | 0.0 | 0.2 | -9.3
Cc1ccc(N(CCC#N)C(=O)COC(=O)c2ccccn2)cc1 | 7.3% | 3.2 | -2.8 | 0.1 | · | 4.4 | 1.6 | -2.0
Cc1cc(C)c(NC(=O)COC(=O)CCn2c(C)csc2=O)c(C)c1 | 1.5% | -0.9 | 0.7 | -0.3 | -2.9 | -7.9 | 0.4 | 12.6
The listing continues:
SMILES | Vif A3G | RanGTP-Impb inh | LANA-H2B inh | AF4-AF9 inh | Beta cell apopt | T cruzi inh | A1 inh | Calb FLC
O=C(Nc1ccc(S(=O)(=O)Nc2cnc3ccccc3n2)cc1)c1ccccc1Br | · | 3.6 | -1.1 | -0.4 | -1.3 | 8.4 | 0.3 | 2.3
COc1ccc2c(c1)Cc1sc(NC(C)=O)nc1-2 | 10.2% | -1.1 | -2.1 | · | -0.7 | -9.0 | -0.9 | 4.2
CCCNC(=O)Cn1cnc2sc(C(=O)NCCCN3CCOCC3)c(C)c2c1=O | · | 0.2 | -1.3 | 0.4 | -6.4 | -20.5 | 0.4 | -19.1
COc1ccc(C(=O)NCC(=O)OCc2ccc(F)cc2Cl)cc1OC | 0.3% | -5.6 | -4.9 | -3.7 | 2.1 | -8.7 | -0.7 | -5.0
Cc1cc(NC(=O)CCC(=O)N(Cc2ccco2)C2(C(=O)NC3CCCC3)CCCCC2C)no1 (stereo not drawn) | · | 4.0 | -3.5 | -0.2 | 0.6 | 14.6 | -0.5 | -1.7
COc1ccc(C2C(C#N)=C(N)Oc3cc(N)ccc32)cc1 (stereo not drawn) | · | 76.6* | -1.5 | -13.2 | -5.3 | 0.6 | 0.7 | -2.9
CCC(C)(C)C(=O)Nc1nnc(CCc2ccccc2)s1 | 1.2% | 0.7 | 0.2 | 2.6 | · | 9.8 | 0.0 | -3.3
CCN1CCN(S(=O)(=O)c2ccc(Cl)c(C(=O)N(C)Cc3ccc(Cl)cc3Cl)c2)CC1 | 25.8% | 0.7 | -5.2 | ? | -5.6 | -9.8 | 2.1 | 1.4
COc1cc2c(cc1NC(=O)CSc1ccccn1)oc1ccccc12 | -0.8% | -3.6 | 4.3 | · | 8.3 | 10.5 | -0.2 | -5.3
Cc1ccc(C)c(N2CCN(C(=O)c3cc(S(=O)(=O)N4CCCC4)cn3C)CC2)c1 | · | -0.4 | -6.1 | 4.1 | -6.0 | 10.3 | -0.5 | -1.1
